NS1 inh – influenza NS1 inhibition | S. cerevisiae slowed by influenza A NS1, growth recovery by OD600 | Potency, µM (series often up to 46.1 µM), for inactives: at the highest dose activity, positive = more growth | hit rate 0.4% among 270,000; also: actives are rising curves; nearly all actives have a fitted effect of over 50% in size
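OD600 was taken as the measure of yeast growth restored by compound in an NS1-expressing S. cerevisiae strain. Cells had been washed out of glucose medium and diluted 1:100 into galactose -URA medium, pH 6.0.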
RE007 growth inh – less growth of the S. pombe RE007 Vpr strain | AID 651644 | Potency, µM (titrated, usually from 92.2 µM), inactives show top-dose activity change, negative = less growth | hit rate 0.21% among 360,000 | S. pombe RE007 Vpr strain, BacTiter-Glo ATP luminescence, 24 h; control for the full effect not named in the record; active = well fitted falling curve with a large enough effect; inconclusive = small, poorly fitted or top-dose-only effect; inactive = no such curve, though single readings can be large or run the other way;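 also: % is scaled to controls: 0 for no effect and ±100 for the full control effect; nearly all actives have a fitted effect of over 50% in size; the assay follows cell death caused by Vpr and the record does not say whether a fall means rescue or toxicity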
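Fission yeast RE007 carrying one integrated HIV-1 vpr copy, seeded at OD 0.01 in PMG+AL medium with 23 nL pinned compound. Grown 24 h at 30 degrees; viability read by BacTiter-Glo luminescence after 5 min.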
LASV entry inh – inhibitors of Lassa virus binding or cell entry; Lassa virus pseudotype entry inhibition, cell reporter; control for the full effect not named in the record; Potency, µM (top dose mostly 37.9 µM), for the others: at the highest dose activity change, negative = inhibition, most hits filed as inhibitors; hit rate 1.2% among 300,000; active means well fitted inhibition curve with a large enough effect; inconclusive means small, poorly fitted or top-dose-only effect, or effect the other way; inactive means flat fitted curve, though single readings scatter; tested in HEK293 cells; also: % is scaled to controls: 0 for no effect and ±100 for the full control effect; nearly all actives have a fitted effect of over 50% in size; luciferase read-out
2A StopGo – lowers the luciferase signal of an FMDV 2A StopGo reporter | human cells with a luciferase reporter of 2A StopGo recoding; control for the full effect not named in the record | AID 1159524 | Potency, µM (top dose mostly 57.9 µM), inactives show top-dose signal change, negative = less light | hit rate 1.2% among 410,000; active = well fitted falling curve with a large enough effect; inconclusive = small, poorly fitted or top-dose-only effect; inactive = no such curve, though single readings can be large or run the other way; tested in HEK293T cells; also: % is scaled to controls: 0 for no effect and ±100 for the full control effect; nearly all actives have a fitted effect of over 45% in size; luciferase light after 4 h
Cruzain noTriton – blocks cruzain activity in detergent-free assay; P25779; purified cruzain, Z-FR-AMC fluorescence, no detergent; Potency, µM, for inactives: max response, negative = inhibition, hits mostly inhibitors; hit rate 2.3% among 200,000; AID 1476; active = well fitted curve in the direction sought with a large enough effect; inconclusive = small, poorly fitted or top-dose-only effect, or another doubt; inactive = no such curve, though single readings can be large; an effect the other way counts as inactive or inconclusive;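 also: plate controls were enzyme without inhibitor for no effect and buffer without enzyme for full effect; nearly all actives have a fitted effect of over 40% in size; top concentration of the series not given in the record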
Target sequence (P25779 123-467 limits assumed): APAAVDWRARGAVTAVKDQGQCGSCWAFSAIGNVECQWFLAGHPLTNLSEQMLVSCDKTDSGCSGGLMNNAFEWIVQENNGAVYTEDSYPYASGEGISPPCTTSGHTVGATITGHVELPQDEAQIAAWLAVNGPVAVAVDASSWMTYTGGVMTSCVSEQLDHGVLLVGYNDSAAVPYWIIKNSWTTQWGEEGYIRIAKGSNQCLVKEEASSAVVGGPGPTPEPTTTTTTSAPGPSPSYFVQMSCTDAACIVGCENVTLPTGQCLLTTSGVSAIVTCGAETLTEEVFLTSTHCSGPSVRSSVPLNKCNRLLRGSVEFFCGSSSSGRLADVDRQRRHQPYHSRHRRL
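Detergent-free condition (0.00005% Triton X-100) in acetate buffer pH 5.5 with DTT. 1.5 nM enzyme and compound were pre-mixed 15 min, then 2 uM Z-FR-AMC substrate added; reaction progress from fluorescence change between first and third reads (60 s).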
MARV entry inh – blocks Marburg virus binding to or entry into cells; Marburg virus pseudotyped entry inhibition, cell reporter; control for the full effect not named in the record; about a third of the inactives were read at about 46 µM; Potency, µM (top dose mostly 37.8 µM), inactives show at the highest dose activity change, negative = inhibition, actives largely listed as inhibitors; hit rate 1.8% among 300,000; AID 540276; active = well fitted inhibition curve with a large enough effect; inconclusive = small, poorly fitted or top-dose-only effect, or effect the other way; inactive = flat fitted curve, though single readings scatter; tested in HEK293 cells; about a fifth of its hits are not listed in these tables; also: % is scaled to controls: 0 for no effect and ±100 for the full control effect; luciferase read-out
SARS PLpro yeast – blocks SARS-CoV papain-like protease in a yeast assay; S. cerevisiae expressing SARS-CoV PLpro, growth rescue; control for the full effect not named in the record; Potency, µM (series often up to 32.9 µM), for the others: at the top dose activity, positive = growth rescue; hit rate 0.19% among 330,000; also: 0% is about no effect; nearly all actives have a fitted effect of over 55% in size; growth read by luminescence after 48 h
Cruzain Triton – cruzain (T. cruzi) inhibition with detergent | P25779 | purified cruzain, Z-FR-AMC fluorescence, 0.01% Triton | Potency, µM, for inactives: max response, negative = inhibition, actives largely listed as inhibitors | AID 1478 | hit rate 0.43% among 200,000; active = well fitted curve in the direction sought with a large enough effect; inconclusive = small, poorly fitted or top-dose-only effect, or another doubt; inactive = no such curve, though single readings can be large; an effect the other way counts as inactive or inconclusive;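 also: plate controls were neutral wells for no effect and buffer without enzyme for full effect; nearly all actives have a fitted effect of over 40% in size; top concentration of the series not given in the record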
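Purified cruzain (1.5 nM final) was preincubated with compounds for 15 min at room temperature in 100 mM sodium acetate pH 5.5, 5 mM DTT, 0.01% Triton X-100. Reaction started with 2 uM Z-FR-AMC; AMC fluorescence change over 60 s gave activity.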
The depositor's hits bear a star; & = joins results of further samples; [ ] = dose if it differs, or a comment. Unless noted, calls follow the shape of the dose curve; as a rule, active means well fitted rising curve with a large enough effect; inconclusive means small, poorly fitted or top-dose-only effect; inactive means no such curve, though single readings can be large or run the other way. Potency is read from the fitted curve at half-maximal effect.

What do the screens show for `CC(=O)NCCOC(=O)c1nn(Cc2ccccc2)c(=O)c2ccccc12`?
NS1 inh: 2%; RE007 growth inh: 5%; 2A StopGo: inconclusive; MARV entry inh: 24%[46.1 µM]; SARS PLpro yeast: 2%

How did Cc1cc(C)cc(N=Cc2c(O)c3ccccc3oc2=O)c1 do in these assays?
RE007 growth inh: 6%; LASV entry inh: inconclusive; 2A StopGo: 17%; MARV entry inh: 4%; SARS PLpro yeast: -2%

What do the screens show for `CCCOc1cccc(C(=O)NCCCNC(=O)c2ccccn2)c1`?
NS1 inh: -17%; RE007 growth inh: 2%; LASV entry inh: -17%; 2A StopGo: -8%; MARV entry inh: -18%; SARS PLpro yeast: 0%

How did Cc1ccc(Cl)cc1N1CCN(C(=O)c2cnc(N3CCOCC3)c3ccccc23)CC1 do in these assays?
LASV entry inh: inconclusive; 2A StopGo: inconclusive; Cruzain noTriton: inconclusive; Cruzain Triton: inconclusive

What do the screens show for `Cc1ccc(S(=O)(=O)NCC(c2ccco2)N2CCN(c3ccccc3F)CC2)cc1` (stereo not given)?
LASV entry inh: -13%[46.1 µM]; 2A StopGo: -7%; Cruzain noTriton: 5%; Cruzain Triton: -3.1%

Results for Cc1cc(=O)[nH]c(N=N/C(=N/Nc2ccc(O)cc2)c2ccccc2)n1 ?
NS1 inh: -64%; RE007 growth inh: inconclusive; LASV entry inh: 20µM*; 2A StopGo: -23%; Cruzain noTriton: inconclusive; MARV entry inh: inconclusive; SARS PLpro yeast: 3%; Cruzain Triton: -4.2%

What do the screens show for `COC1(NS(=O)(=O)c2ccc(Br)cc2)C(C)=CC(=O)C=C1C`?
RE007 growth inh: 9%; LASV entry inh: 13%[46.1 µM]; 2A StopGo: 0%; MARV entry inh: 22%[46.1 µM]; SARS PLpro yeast: 11%

Results for OCCN1CCN(Cc2cccc(Oc3ccc(Cl)cc3)c2)CC1 ?
NS1 inh: -15%; RE007 growth inh: 3%; LASV entry inh: -20%; 2A StopGo: -1%; Cruzain noTriton: 5%; MARV entry inh: inconclusive; SARS PLpro yeast: -11%; Cruzain Triton: 4.6%

Results for Cc1ccc(N2C(=O)NC3(CCCCC3)C2=O)cc1 ?
NS1 inh: -1%; RE007 growth inh: 2%; LASV entry inh: inconclusive; 2A StopGo: 27%; Cruzain noTriton: -9%; MARV entry inh: 8%; SARS PLpro yeast: 0%; Cruzain Triton: 0.1%

Results for Cc1oc2c(CN(C)C)c(O)ccc2c(=O)c1-c1ccc2ccccc2n1 ?
NS1 inh: 4%; RE007 growth inh: 8%; LASV entry inh: 12%; Cruzain noTriton: -7%; MARV entry inh: 0%; SARS PLpro yeast: -4%; Cruzain Triton: -0.8%

How did Cc1cc(=O)oc2c(O)c(O)ccc12 do in these assays?
RE007 growth inh: 28%; 2A StopGo: -2%&31%; Cruzain noTriton: -19%; Cruzain Triton: -12%

Results for O=c1[nH][nH]c(=O)c2cc([N+](=O)[O-])ccc12 ?
RE007 growth inh: 11%&-13%; LASV entry inh: -12%[46.1 µM]; 2A StopGo: -11%&-16%; Cruzain noTriton: -2%; MARV entry inh: 6%[46.1 µM]; SARS PLpro yeast: -13%; Cruzain Triton: 1.4%

How did O=c1c2ccccc2nc(N/N=C/c2ccccc2)n1O do in these assays?
NS1 inh: -1%; RE007 growth inh: 2%; LASV entry inh: -36%; 2A StopGo: 33%[activator]; Cruzain noTriton: -1%; MARV entry inh: -24%; SARS PLpro yeast: -3%; Cruzain Triton: 0.4%

How did CC(=O)Nc1cccc(C(=O)OC(C)C(=O)N2CCc3ccccc32)c1 (stereo not given) do in these assays?
RE007 growth inh: 25%; LASV entry inh: 28%; 2A StopGo: -25%; MARV entry inh: 5%[46.1 µM]; SARS PLpro yeast: -4%

What do the screens show for `COc1ccccc1N1CCN(Cc2nnnn2CCc2ccccc2)CC1`?
NS1 inh: -10%; RE007 growth inh: 1%; LASV entry inh: -21%; 2A StopGo: -18%; Cruzain noTriton: 25%; MARV entry inh: 1%&10%; SARS PLpro yeast: 3%; Cruzain Triton: 3.6%

What do the screens show for `O=C(c1ccccc1)c1cc(F)c(N2CCOCC2)cc1Cl`?
NS1 inh: -55%; RE007 growth inh: 40µM*; LASV entry inh: -7%; 2A StopGo: -23%; Cruzain noTriton: 2%; MARV entry inh: inconclusive; SARS PLpro yeast: -17%; Cruzain Triton: -6.4%

Results for CCC(C)NS(=O)(=O)c1ccc(OCC(=O)Nc2ccc(F)cc2F)cc1 (stereo not given) ?
NS1 inh: 0%; RE007 growth inh: 6%; LASV entry inh: -15%; 2A StopGo: -7%; Cruzain noTriton: -2%; MARV entry inh: inconclusive; SARS PLpro yeast: 13%; Cruzain Triton: -1.8%

Results for COc1cc(NC(=O)c2ccccc2)c(OC)cc1NC(=O)Cc1ccc(Br)cc1 ?
NS1 inh: 2%; RE007 growth inh: 13%; LASV entry inh: inconclusive; 2A StopGo: inconclusive; MARV entry inh: inconclusive; SARS PLpro yeast: -3%

What do the screens show for `CCn1c(=O)c2sccc2n(Cc2ccc(C)cc2)c1=O`?
NS1 inh: 8%; RE007 growth inh: 2%; LASV entry inh: 0%[46.1 µM]; 2A StopGo: -5%; MARV entry inh: -22%[46.1 µM]; SARS PLpro yeast: -3%

How did CCN(CC(=O)NCCc1ccc(S(N)(=O)=O)cc1)Cc1nc2ccccc2c(=O)[nH]1 do in these assays?
NS1 inh: -11%; RE007 growth inh: 6%; LASV entry inh: 21%; 2A StopGo: 26%; Cruzain noTriton: 5%; MARV entry inh: 4%; SARS PLpro yeast: 4%; Cruzain Triton: 2.6%

How did CCOC(=O)c1cc(NC(=O)Nc2cc(C)ccn2)c(C)nc1C do in these assays?
RE007 growth inh: -2%; LASV entry inh: 13%; 2A StopGo: -6%; MARV entry inh: -19%[46.1 µM]; SARS PLpro yeast: 1%

How did COC(CNC(=O)C1CCCN1C(=O)OCc1ccccc1)OC (stereo not given) do in these assays?
RE007 growth inh: 2%; LASV entry inh: 15%[46.1 µM]; 2A StopGo: -7%; MARV entry inh: inconclusive; SARS PLpro yeast: 0%

How did Cc1cc(N)n(-c2ccccc2)n1 do in these assays?
NS1 inh: inconclusive; RE007 growth inh: -13%; LASV entry inh: 7%; 2A StopGo: 1%; Cruzain noTriton: -4%; MARV entry inh: -2%; SARS PLpro yeast: 4%; Cruzain Triton: 2.4%

What do the screens show for `COc1ccc([C@@H]2[C@@H]3C(=O)N(C(C)(C)C)C(=O)[C@@H]3[C@]3(C)C(=O)N(c4cccc(C)c4)C(=O)N23)cc1`?
NS1 inh: -5%; RE007 growth inh: 4%; 2A StopGo: -20%; SARS PLpro yeast: 9%

Results for Nc1nonc1-c1noc(CCCOc2ccc(Cl)cc2Cl)n1 ?
NS1 inh: 9%; RE007 growth inh: 13%; LASV entry inh: 0%; 2A StopGo: -13%; Cruzain noTriton: -3%; MARV entry inh: 3%; SARS PLpro yeast: 0%; Cruzain Triton: -4.5%

How did CC(C)(C)C(=O)NNC(=O)c1cnccn1 do in these assays?
NS1 inh: -1%; RE007 growth inh: -12%; 2A StopGo: -8%; SARS PLpro yeast: 0%

Results for O=C(CN1C(=O)c2ccccc2C1=O)Nc1ccccc1N1CCOCC1 ?
NS1 inh: 1%; RE007 growth inh: 10%; LASV entry inh: 4%[46.1 µM]; 2A StopGo: 10%; MARV entry inh: inconclusive; SARS PLpro yeast: 1%

How did Cc1ccc(C)c(NC(=O)CSc2nc(=O)n(Cc3ccncc3)c3c2CCC3)c1 do in these assays?
LASV entry inh: 2%[46.1 µM]; 2A StopGo: 22%; Cruzain noTriton: 9%; Cruzain Triton: -2.4%

What do the screens show for `O=C(Cn1c(=O)n(CCCS(=O)(=O)C2CCCCC2)c(=O)c2ccccc21)Nc1ccc(F)c(Cl)c1`?
LASV entry inh: 2%[46.1 µM]; 2A StopGo: -19%; Cruzain noTriton: 4%; MARV entry inh: 1%[46.1 µM]; Cruzain Triton: -1.2%

What do the screens show for `CCN(C(=O)c1cc2c(=O)n3ccccc3nc2n1C)C1CCCCC1`?
NS1 inh: -6%; RE007 growth inh: -6%; 2A StopGo: 23%; SARS PLpro yeast: -4%

What do the screens show for `COc1ccccc1-c1nc(SCc2ccccn2)n[nH]1`?
NS1 inh: -14%; RE007 growth inh: 0%; LASV entry inh: inconclusive; 2A StopGo: 12%; Cruzain noTriton: 4%; MARV entry inh: 0%; SARS PLpro yeast: -5%; Cruzain Triton: 2.1%

Results for O=C(CNS(=O)(=O)c1cccs1)NCc1ccc(F)cc1 ?
RE007 growth inh: -6%; LASV entry inh: inconclusive; 2A StopGo: -10%; MARV entry inh: 5%[46.1 µM]; SARS PLpro yeast: 1%

What do the screens show for `CCc1ccc(C(=O)c2cn(CC(=O)Nc3cccc(C)c3C)c3nc(C)ccc3c2=O)cc1`?
LASV entry inh: 15%[46.1 µM]; 2A StopGo: -1%; Cruzain noTriton: -3%; Cruzain Triton: 1.0%

How did CC(=O)N1CCOc2cc(S(=O)(=O)NCc3ccccc3Cl)c(Cl)cc21 do in these assays?
LASV entry inh: -22%[46.1 µM]; 2A StopGo: 71%[activator]; Cruzain noTriton: -5%; SARS PLpro yeast: 3%; Cruzain Triton: -0.8%

What do the screens show for `CC(C)CC(C(=O)NCc1ccccn1)N1C(=O)c2ccccc2C1=O` (stereo not given)?
NS1 inh: 1%; RE007 growth inh: 19%; LASV entry inh: -2%; 2A StopGo: -5%; Cruzain noTriton: 6%; MARV entry inh: 9%; SARS PLpro yeast: 2%; Cruzain Triton: -4.4%

What do the screens show for `COc1cc(OC)c(C2CC(=O)N3CN(c4ccccc4)CSC3=C2C#N)cc1OC` (stereo not given)?
NS1 inh: -85%; RE007 growth inh: 9%; LASV entry inh: 5%; 2A StopGo: 3%; Cruzain noTriton: -8%; MARV entry inh: -7%; SARS PLpro yeast: 7%; Cruzain Triton: -3.1%

What do the screens show for `CS(=O)(=O)NCCOc1ccc(S(=O)(=O)N2CCCc3ccccc32)cc1`?
NS1 inh: -22%; RE007 growth inh: -14%; LASV entry inh: 17%; Cruzain noTriton: 25%; MARV entry inh: -40%; SARS PLpro yeast: -2%; Cruzain Triton: -3.6%

How did COc1ccc(/C=N/N=C2/NC(=O)C(CC(=O)O)S2)cc1OCc1ccc(Cl)cc1 (stereo not given) do in these assays?
NS1 inh: 4%; RE007 growth inh: 34%; LASV entry inh: 6%; 2A StopGo: -13%; Cruzain noTriton: 2%; MARV entry inh: inconclusive; SARS PLpro yeast: -16%; Cruzain Triton: inconclusive

Compound activity from PubChem.
